Sfp inh – inhibitors of Bacillus subtilis Sfp phosphopantetheinyl transferase; Biochemical Sfp PPTase activity, qHTS; Potency, µM, for inactives: max response, negative = inhibition, actives largely listed as inhibitors; 3.5% of 310,000 active; AID 1490; active = well fitted inhibition curve with a large enough effect; inconclusive = small, poorly fitted or top-dose-only effect, or another doubt; inactive = no such curve, though single readings can be large or run the other way;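 also: the enzyme is Sfp with the accession as filed and its product quenches rhodamine fluorescence; potency is read from the fitted curve at half-maximal effect; 0% = enzyme reaction without inhibitor and -100% = no enzyme wells; top concentration of the series not given in the record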
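After 15 min at room temperature with compound, 15 nM Sfp received 5 uM rhodamine-CoA plus 12.5 uM BHQ-2-ybbR (50 mM Hepes pH 7.6, 10 mM MgCl2). Rate came from the fluorescence difference over 30 min, ex 525/em 598 nm.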
TRPML1 blocker – inhibitors of human TRPML1 channel | 0.02% of 390,000 active | TRPML1-inducible cells, Ca2+ dye fluorescence, FDSS; stronger effect = lower value; inhibition of EC80 agonist-evoked calcium signal | activity change, negative = inhibition, % (concentration not given with the values); in the data active means activity change below about -50%; inconclusive means about -30% to -50%; inactive means above about -30%;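 also: stimulus is agonist 54-4 at its EC80 concentration; % is scaled to controls: 0 for no effect and ±100 for the full control effect; compound concentration not given in the record; the text of the record puts the active cut at -80%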
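Tet-induced TRPML1-DL cells loaded with Ca8 no-wash calcium dye were read kinetically on FDSS. Compound addition was followed by EC80 agonist 54-4 (4 uM final); inhibition was read over 110 s.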
TRPV1 PAM – enhances activation of the human vanilloid receptor TRPV1. Q8NER1. TRPV1-expressing cells, Fluo-8 calcium influx, capsaicin EC20 potentiation; host cell line not named in the record; control for the full effect not named in the record. potentiation, % at 8.33 µM. 0.02% of 320,000 active. AID 540277; active means potentiation above 80%; inconclusive means 30% to 80%; inactive means below 30%; also: 0% is about no effect
Target sequence (Q8NER1 whole entry, looked up): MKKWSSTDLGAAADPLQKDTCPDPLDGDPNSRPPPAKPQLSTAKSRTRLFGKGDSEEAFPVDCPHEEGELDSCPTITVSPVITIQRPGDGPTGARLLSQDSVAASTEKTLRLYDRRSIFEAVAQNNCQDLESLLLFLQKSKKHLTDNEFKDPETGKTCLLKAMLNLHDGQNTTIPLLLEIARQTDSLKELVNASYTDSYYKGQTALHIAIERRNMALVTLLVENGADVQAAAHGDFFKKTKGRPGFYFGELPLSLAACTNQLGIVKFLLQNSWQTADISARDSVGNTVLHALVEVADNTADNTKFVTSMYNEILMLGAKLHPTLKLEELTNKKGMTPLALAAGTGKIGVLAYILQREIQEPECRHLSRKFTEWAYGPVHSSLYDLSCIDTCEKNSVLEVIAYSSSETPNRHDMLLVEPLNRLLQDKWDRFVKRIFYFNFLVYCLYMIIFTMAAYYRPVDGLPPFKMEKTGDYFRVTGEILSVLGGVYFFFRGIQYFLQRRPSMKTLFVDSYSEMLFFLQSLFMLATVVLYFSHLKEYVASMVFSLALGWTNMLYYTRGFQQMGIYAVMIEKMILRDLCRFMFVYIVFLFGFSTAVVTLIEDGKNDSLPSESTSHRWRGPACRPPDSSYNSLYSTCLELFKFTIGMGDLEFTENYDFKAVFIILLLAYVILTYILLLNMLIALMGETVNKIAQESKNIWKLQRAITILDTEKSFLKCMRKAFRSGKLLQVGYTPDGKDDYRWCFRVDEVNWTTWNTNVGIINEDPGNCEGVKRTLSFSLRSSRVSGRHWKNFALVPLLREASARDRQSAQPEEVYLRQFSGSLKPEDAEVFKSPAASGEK
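Cells expressing TRPV1 were dye-loaded with Fluo-8 and read kinetically: 10 s baseline, 3 min after compound (agonist portion), then 2 min after EC20 capsaicin (allosteric enhancer portion). Calcium-bound dye fluorescence at 480/520 nm.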
TRPML1 agonist – human mucolipin-1 channel agonism; Q9GZU1; TRPML1-expressing cells, Ca2+ dye fluorescence, FDSS; host cell line not named in the record; reference of the full effect not given here; 0.12% of 410,000 active; AID 624414; activation, % (concentration not given with the values); in the data active = activation above about 50%; inconclusive = about 30% to 50%; inactive = below about 30%; also: 0% is about no effect; the text of the record puts the active cut at 80%
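Tet-induced TRPML1-DL cells, 1,500 per well, cultured overnight, were loaded with a no-wash Ca2+ dye for 45–90 min. Calcium fluorescence was recorded on the FDSS for 110 s after compound addition, before the EC80 agonist (4 uM 54-4) was added.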
ClpP mod – qHTS Assay for Activators of ClpP. ATP-dependent Clp protease proteolytic subunit (Bacillus subtilis (strain 168)), P80244. purified B. subtilis ClpP, FRET peptide cleavage, 20 min. Potency, µM (top dose mostly 57.5 µM), without a hit: at the highest dose activity change, negative = active. 1.9% of 340,000 active. AID 651965, 2013; active = well fitted falling curve with a large enough effect; inconclusive = small, poorly fitted or top-dose-only effect; inactive = no such curve, though single readings can be large or run the other way; also: potency is read from the fitted curve at half-maximal effect; the source files actives as falling curves though it sought activators and does not explain the sign; nearly all actives have a fitted effect of over 65% in size; many hits overshoot -100%
Target sequence (P80244 whole entry, looked up): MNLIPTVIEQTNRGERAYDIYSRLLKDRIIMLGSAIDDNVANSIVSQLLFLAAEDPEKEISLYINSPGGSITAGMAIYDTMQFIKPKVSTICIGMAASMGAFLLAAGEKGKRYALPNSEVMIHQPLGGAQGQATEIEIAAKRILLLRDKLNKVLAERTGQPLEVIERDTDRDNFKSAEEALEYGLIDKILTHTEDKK
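Purified B. subtilis ClpP, 10 microg/mL final in Tris/HCl pH8 with KCl, BSA, glycerol and Tween-20, cleaved an Abz/nitrotyrosine-quenched decapeptide. Fluorescence (ex 320, em 430) was read at 0 and 20 min at room temperature. Delta was normalized to 5.8 microM ADEP and DMSO/no-enzyme controls.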
Menin MLL FP FL – menin-MLL binding inhibition, fluorescein peptide; Fluorescence polarization, fluorescein-MLL peptide displacement from menin; FP activity change, % at 61.4 µM; 290,000 tested, under 10 active; AID 1766; inconclusive = falling polarisation curve, or a change in total fluorescence; inactive = total fluorescence flat and polarisation flat or rising; no compound was filed as active; the % refers to the polarisation; negative = inhibition;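 also: % of control where 0% means no effect; inhibitors lower the polarisation; unlabelled MLL peptide was the positive control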
PINK1 modulator – changes PINK1 expression; 0.2% of 410,000 active; AID 624263; PINK1 immunofluorescence, high-content cytometry, 24 h; Potency, µM (titrated, usually from 76.6 µM), for the others: at the highest dose activation (PINK1 increase), most hits filed as activators; active = well fitted activation curve with a large enough effect; inconclusive = small, poorly fitted or top-dose-only effect; inactive = flat fitted curve, though single readings scatter; cell line not stated here;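 also: potency is read from the fitted curve at half-maximal effect; % of control where 0% means no effect; nearly all actives have a fitted effect of over 65% in size; a mitochondrial uncoupler was the plate control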
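Fluorescence from anti-PINK1 antibody, together with nuclear and cell stains, was scanned on a laser-scanning cytometer. Before staining, stable-line cells were incubated 24 hours with compounds at 5 concentrations; primary antibody 12 h at 10 degrees C.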
Starred values were filed as active, the others as inactive; u = inconclusive; x = not tested or not shown; & = joins results of further samples; [ ] = remark or other dose. Random draw from the library; about 4.4% have a hit in one of these screens.

SMILES	Sfp inh	TRPML1 blocker	TRPV1 PAM	TRPML1 agonist	ClpP mod	Menin MLL FP FL	PINK1 modulator
O=C(Nc1ccccc1Cl)NC1(C(=O)N2CCOCC2)CCCCC1	34%[activator]	-23	-14	0.6	x	-6.0	2.2%
O=C(CN(C(=O)c1ccc(Cl)cc1)N1C(=O)C2CCCCC2C1=O)c1ccc(Cl)cc1 (stereo not drawn)	4%	15	u	1.6	-1.3%	2.4	-1.9%[38.3 µM]
CS(=O)(=O)c1ccc(NCC2CCCO2)c([N+](=O)[O-])c1 (stereo not drawn)	19%	27	10	-0.6	x	-3.6	-3.4%
O=C1C2C3C=CC(C3)C2C(=O)N1c1ncc([N+](=O)[O-])s1 (stereo not drawn)	x	-15	x	1.1	x	x	3.0%
C/C(=N\NC(=O)Cn1c(-c2ccccn2)nc2ccccc21)c1cccc(O)c1	4%	10	13	0.8	u	-0.9	0.7%
CCCCNC(=S)N/N=C/c1cc(C)ccc1C	-3%	15	17	1.5	-2.4%	3.7	1.0%
N=c1sccn1CC(=O)NCCc1ccc(Cl)cc1Cl	9%	5	-10	1.4	-1.1%	-1.3	-1.3%
COc1cc(C(c2c(NC(=O)c3ccco3)sc(C)c2C)N2CCOCC2)cc(OC)c1OC (stereo not drawn)	x	-9	-3	1.1	1.1%	x	4.2%
Cc1ccccc1-c1cncnc1N1CCNCC1	25%	x	x	x	x	-20	0.3%
CN(C)c1ccc(-c2nnn(CC(=O)N3c4ccccc4CCc4ccccc43)n2)cc1	-8%	-9	7	-0.3	u	5.8	5.4%[38.3 µM]
CC(NC(=O)COc1ccc(-c2nnco2)cc1)c1ccc(Cl)cc1Cl (stereo not drawn)	8%	16	21	1.2	-2.6%	5.4	-0.7%
Cc1nc2c(ncn2-c2ccccc2)c(=O)n1NC(=O)CN1CCCCC1	11%	14	1	2.0	2.1%	-0.9	0.5%
O=C(NN=Cc1c(F)c(F)c(F)c(F)c1F)c1ccc(NS(=O)(=O)c2cccs2)cc1	x	-2	x	1.3	-6.9%	x	-0.6%
COc1ccccc1NC(=O)C(=O)NCCC1CCCCN1S(=O)(=O)c1ccccc1 (stereo not drawn)	x	10	5	0.2	-1.9%	x	0.2%
COc1ccc(-c2csc(NCc3ccco3)n2)cc1C	-4%	-12	7	-1.2	0.6%	3.7	-0.9%
O=C(CCCc1ccccc1)NCCS(=O)(=O)N1CCN(c2ccc(F)cc2)CC1	x	2	6	0.0	-2.4%	x	3.8%
O=S(=O)(c1ccc(F)cc1)N1CCCC(c2nc(-c3ccc(F)cc3)no2)C1 (stereo not drawn)	x	58	u	-0.9	-0.3%	x	0.4%
COC(=O)CCCC1=CC2=C(c3ccccc3)C(=O)C(C)(OC(=O)C3CCCC3)C(=O)C2=CN1CC(C)C (stereo not drawn)	-13%&-10%	5	u	2.4	0.2%	2.8[11.7 µM]	0.4%
CCNC(=S)N1CCC(Cc2ccccc2)CC1	15%	25	-5	-0.6	0.0%	x	-1.2%
COc1cccc(-c2cnc3cccnn23)c1	x	78	x	3.0	4.5%	x	-0.9%
CCCCOc1cccc(C2/C(=C(\O)c3ccc4c(c3)OCCO4)C(=O)C(=O)N2CCN2CCOCC2)c1 (stereo not drawn)	-8%	20	1	-0.5	-0.2%	x	0.2%
CCOC(=O)c1c(NC(=O)c2nc(SC(C)C)ncc2Cl)sc2c1CCCC2	x	4	x	-0.5	-1.8%	x	11%
CCCN(CC(=O)Nc1ccccc1C)C(=O)c1ccc(COc2ccccc2)cc1	8%	19	10	0.8	-1.1%	-5.7	1.5%
CC(=O)OC1CC2C(C)(C)C(O)C=C[C@@]2(C)C2CC[C@@]3(C)C(c4ccoc4)OC(=O)C4OC43[C@]12C (stereo partly drawn)	-6%	x	x	x	x	-1.0	1.7%
Nc1nc(CSc2nnnn2-c2ccc(Cl)cc2)nc(N2CCOCC2)n1	15%	-17	-14	-1.0	0.7%	4.5	16%
CCN(CC)C(=O)Cn1c(SCC(=O)Nc2ccc(F)cc2)nc2ccccc21	x	-3	x	-0.3	-0.1%	x	-1.4%
COc1cccc(C(CC(=O)O)NS(=O)(=O)c2ccc3c(c2)N(C(C)=O)CC(C)O3)c1 (stereo not drawn)	11%	22	6	1.4	-2.3%	-1.9	-0.9%
Cc1ccc(-c2csc(N/N=C/c3ccco3)n2)cc1	89µM*	-4	-3	-0.2	-0.4%	0.5	4.1%[38.3 µM]
COc1cc(N/N=C(\C)c2ccc(N)cc2)nc(-c2ccccc2)n1	15%	8	0	0.3	-1.8%	0.1	4.5%
CCOc1cc2[nH]c(=S)n(CCN3CCC(C)CC3)c(=O)c2cc1OCC	3%	-11	0	-0.4	3.5%	-0.5	x
CC(=O)N1CCOc2ccc(S(=O)(=O)N3CCCC(C)C3)cc21 (stereo not drawn)	2%	5	-20	0.4	0.8%	x	0.6%
COc1ccc(-n2c(N)cc(=O)nc2SCC(=O)N2CCN(c3ccccc3)CC2)cc1	1%	-7	-5	0.1	6.5%	4.1	0.1%
COc1cccc(C(=O)NCCS(=O)(=O)NCc2cccnc2)c1	x	8	2	0.5	-3.7%	x	-0.6%
CC(C)c1nn2c(N)c(/C=C3\C=Nc4ccccc43)c(=O)nc2s1	18%	18	u	0.2	-2.1%	5.1	1.3%
O=C(CCN1C(=O)C2C3CCC(C3)C2C1=O)OCC(=O)c1ccc(Cl)cc1 (stereo not drawn)	-3%	1	-14	0.3	-2.1%	x	-0.2%
Cc1cc(OCC(=O)NNC(=S)NC(=O)c2ccc(Br)o2)ccc1Cl	9%	-8	9	0.5	0.5%	x	2.1%

Filtered by structure: the entries above with an aryl thioether with sulfur outside any ring (four)
SMILES	Sfp inh	TRPML1 blocker	TRPV1 PAM	TRPML1 agonist	ClpP mod	Menin MLL FP FL	PINK1 modulator
CCOC(=O)c1c(NC(=O)c2nc(SC(C)C)ncc2Cl)sc2c1CCCC2	x	4	x	-0.5	-1.8%	x	11%
Nc1nc(CSc2nnnn2-c2ccc(Cl)cc2)nc(N2CCOCC2)n1	15%	-17	-14	-1.0	0.7%	4.5	16%
CCN(CC)C(=O)Cn1c(SCC(=O)Nc2ccc(F)cc2)nc2ccccc21	x	-3	x	-0.3	-0.1%	x	-1.4%
COc1ccc(-n2c(N)cc(=O)nc2SCC(=O)N2CCN(c3ccccc3)CC2)cc1	1%	-7	-5	0.1	6.5%	4.1	0.1%

(listing goes on)
SMILES	Sfp inh	TRPML1 blocker	TRPV1 PAM	TRPML1 agonist	ClpP mod	Menin MLL FP FL	PINK1 modulator
CC(=O)Nc1ccc(S(=O)(=O)Nc2cccc(-n3c(C)nc4ccccc4c3=O)c2)cc1	x	-8	-6	0.0	2.9%	x	8.6%
Cc1cccc(/C(N)=N/OC(=O)c2ccc(Br)o2)c1	-11%	-6	-14	1.2	1.2%	3.0	1.4%
CCC(=O)N1CCc2cc(Br)cc(S(=O)(=O)NCCCN(CC)Cc3ccccc3)c21	12%	-11	-6	1.5	x	3.9	-0.8%
COc1ccccc1N1CCN(C2CCCN(C(=O)CCC(=O)N(C)C)C2)CC1 (stereo not drawn)	15%	-1	5	0.3	0.7%	-0.2	0.5%
CC(=O)N(C(C)=O)n1c(/C=C/c2ccc([N+](=O)[O-])cc2)nc2ccccc2c1=O	2%	27	-3	-0.6	x	5.1	0.9%
Cc1cnc([N+](=O)[O-])n1CCOC(=O)NC(=O)c1ccccc1Cl	11%	3	6	0.3	x	-2.9	1.5%
COC(=O)CCCCCCCCCC[N+]1(C)CCCCC1	1%	17	-2	0.5	-2.1%	0.2	-2.0%
CC1(c2ccc3c(c2)OCCO3)NC(=O)N(CC(=O)c2ccc[nH]2)C1=O (stereo not drawn)	x	-23	4	1.0	0.8%	x	-0.2%
CN=C1S/C(=C\c2cc(C)n(-c3ccccc3F)c2C)C(=O)N1C	u	5	0	-0.8	-2.3%	11	13%[38.3 µM]
NC(c1ccccc1)c1csc(NC(=O)Nc2ccc(OC(F)(F)F)cc2)n1 (stereo not drawn)	x	-29	x	-0.1	-1.2%	x	-1.4%
CCOC(=O)[C@@H]1[C@H]2COc3ccccc3[C@H]2N2C(=O)N(c3ccc(Cl)cc3)C(=O)[C@]12C	10%	-1	8	-0.5	1.8%	-4.2	0.9%
O=C(c1ccccc1F)N1CCC2CC1c1cc(N3CCCCC3)ccc12 (stereo not drawn)	x	-12	x	-0.5	1.6%	x	3.1%
COc1cc(/C=C(\CC(=O)O)c2nc3ccccc3s2)ccc1OCC(=O)Nc1ccccc1F	x	41	x	-0.7	-26%	x	1.2%
CC(=O)N1CCc2cc(S(=O)(=O)NC(C(=O)NC(C)c3ccccc3)C(C)C)ccc21 (stereo not drawn)	12%	3	-2	-0.9	0.3%	x	-0.7%
CCOc1ncccc1C(=O)NCCc1c[nH]c2ccccc12	6%	19	3	2.3	x	x	-3.1%
O=C(CNC(=O)C(c1ccccc1)c1ccccc1)OCc1ccccc1	12%	5	-6	-0.8	1.2%	1.0	0.0%
COc1ccc(C(=O)CCC(=O)N2CCN(c3ccc(C)cc3)C(C)C2)cc1 (stereo not drawn)	9%	17	7	-0.5	1.6%	2.5	-0.7%
O=C1N[C@@H](Cc2ccccc2)C(=O)N2[C@H]1C[C@]1(Br)c3ccccc3N(S(=O)(=O)c3ccc(F)cc3)[C@H]21	x	35	x	-0.2	0.6%	x	-0.2%
CCCNC(=O)C1(C)CCN(C(=O)c2ccccc2OC(F)(F)F)C1 (stereo not drawn)	x	x	x	-0.7	2.4%	x	0.9%
CCOC(=O)N1C(=O)[C@](CC)(c2ccccc2)N1C(=O)OCC	-19%	-2	-27	-0.8	2.0%	-4.5	4.6%
O=C(CCC(=O)c1cccs1)NC1CCCCCC1	15%	-7	-4	0.1	0.2%	2.5	1.1%
CCS(=O)(=O)N1CCC(C(=O)NCCC(C)C)CC1	x	-9	x	-0.7	1.2%	x	-0.7%
O=C(NCCc1nc2ccccc2[nH]1)c1ccc([N+](=O)[O-])cc1	2%	17	x	1.0	x	-2.9	-0.7%
